Compound activity: PubChem, Fisher Drug Discovery Resource Center
NPYLR7 agonist – agonists of mosquito NPYLR7 receptor, primary screen, cell-based, Aedes aegypti, calcium fluorescence, mosquito biting behavior. Aedes aegypti neuropeptide Y-like receptor 7 (NPYLR7). HEK293T NPYLR7/Galpha15, GCaMP6s calcium fluorescence. activation, % at 10 µM. hit rate 0.15% among 270,000. AID 1259423, 2018; in the data active = activation above about 40%;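 also: 0% = vehicle and 100% = reference agonist at the receptor; some compounds past the cut are filed as inactive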
NPYLR7 agonist max-min – further read-out of NPYLR7 agonist, marked with its call; activation, %; measured here: Max-Min RFU normalised activation; some inactives read as strong as hits;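 span of the calcium signal over five minutes; 0% = vehicle and 100% = native peptide agonist; compound fluorescence can raise it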
Starred values were filed as active, the others as inactive.

Results follow in this order: NPYLR7 agonist	NPYLR7 agonist max-min
CCC(CC)NC(=O)C1CCN(C(=O)c2ccc(F)cc2F)CC1
    7	-2
CC(C)c1ccc(N2CCN(CC(=O)Nc3cccc(OC(F)F)c3)C2=O)cc1
    3	-1
COc1ccc(OC)c(N=c2oc3c(C)ncc(CO)c3cc2C(=O)Nc2cccc3ccccc23)c1
    -7	-13
CCn1c(=O)c(C(=O)N2CCN(C(C)=O)CC2)nn(-c2cccc(C)c2)c1=O
    -5	-3
O=C(Nc1ccc(F)c(N2CCCS2(=O)=O)c1)c1ncoc1-c1ccco1
    -6	-5
N#Cc1c(-c2ccccc2)c2cc(Br)ccc2[nH]c1=O
    -2	-8
CCOC(=O)c1cccc(NC(=O)N2CCC(CCc3ccc(C(F)(F)F)cc3)CC2)c1
    26	12
CCOC(=O)C1CCCN(C(=O)c2cccc(CSc3nc(N(C)Cc4ccccc4)cc(C(C)(C)C)n3)c2)C1 (stereo not drawn)
    -6	-5
COc1ccc(-n2c(=O)[nH]c3c(C(N)=O)nc(-c4ccccc4O)nc32)c(OC)c1
    -2	-6
Cc1cc(Nc2ccc3c(n2)C(=O)N(CC(=O)NCc2ccccc2F)C3)n(C)n1
    4	0
COc1ccccc1/C=C/C(=O)NCC(=O)N=Nc1c(O)n(CCc2ccccc2)c2ccccc12
    8	-2
C=CCNC(=O)C(NC(=O)c1ccccc1)C1CCN(C(=O)c2ccccc2C)CC1 (stereo not drawn)
    -11	-8
Cc1cnc(C)c(-c2cccc(OC(C)C)c2)n1
    1	-2
CCN1CCC(n2nccc2NC(=O)c2cnc(-c3ccsc3)s2)CC1
    7	3
O=C(CCCC(=O)N1CCN2C(=O)CNC(=O)C2C1)c1ccccc1 (stereo not drawn)
    -3	-3
C=CC[C@@H]1CC=C[C@@H](C)N1C(=O)c1ccc2nc(Cc3ccc(OC)c(OC)c3)oc2c1
    11	1
NC(N)=Nc1nc2ccccc2[nH]1
    10	9
CCOC(=O)NCCS(=O)(=O)N1CCN(c2ccc(OC)cc2)CC1
    -2	-3
O=C(NCC1CCCN(CC#Cc2ccccc2)C1)c1cccs1 (stereo not drawn)
    2	0
Fc1ccccc1-c1nc(=S)c2c([nH]1)Oc1ccccc1C2
    9	7
CCCCN(CC#Cc1ccccc1)C(=O)c1cccc(=O)[nH]1
    5	46
CCCN(C)c1ccc(C(=O)N(C)Cc2cscn2)cc1
    4	1
COc1ccc(C2SCC(=O)N2Cc2ccccc2)cc1 (stereo not drawn)
    -9	-11
C#CCNC(=O)C(C#N)C(=O)C1(c2cccc(C)c2)CC1 (stereo not drawn)
    3	-1
Cc1cccc(CN2C(=O)C3(c4ccccc42)N(c2ccc(C)c(F)c2)C(=O)CS3(=O)=O)c1 (stereo not drawn)
    1	-7
Cc1cccc(-n2ccc(-c3cnccn3)n2)c1
    6	3
CSCC(=O)N1CCC2(CCCN(Cc3cccnc3)C2=O)C1 (stereo not drawn)
    19	15
O=c1oc2ccccc2cc1-c1nnc(-c2ccncc2)o1
    -4	-4
Cc1noc(NC(=O)c2ccc(S(=O)(=O)C3CCCC3)cc2)n1
    3	1
COc1ccc(CN(C)Cc2nc(-c3cnccn3)no2)c2cccnc12
    11	1

One compound at a time (already shown).
Shown for Cc1cnc(C)c(-c2cccc(OC(C)C)c2)n1 = NPYLR7 agonist = 1; NPYLR7 agonist max-min = -2
Shown for COc1ccc(OC)c(N=c2oc3c(C)ncc(CO)c3cc2C(=O)Nc2cccc3ccccc23)c1 = NPYLR7 agonist = -7; NPYLR7 agonist max-min = -13

(continued)
Results follow in this order: NPYLR7 agonist	NPYLR7 agonist max-min
O=c1oc(-c2cccs2)nc2ccc(Cl)cc12
    6	3
O=C(NC1(c2ccc(Cl)cc2)CCC1)c1cnsn1
    -1	-1
CS(=O)(=O)c1ccc(CN2CCc3nc4ccccc4c(C(=O)N4CCOCC4)c3C2)cc1
    0	17
COc1ccc(CCN(Cc2sccc2C)C(=O)CN(CCN2CCCC2)S(=O)(=O)c2cc(Cl)ccc2Cl)cc1OC
    -2	-3
CCOC(=O)N1C2C=C(C)C(C3C(C)C(=O)N31)N(C(=O)c1ccccc1)O2 (stereo not drawn)
    -5	-7
CC1(C)N=C(c2ccc(Cl)cc2)C(=S)N1
    8	5
CCn1c(C2CCN(Cc3ccnn3-c3ccccc3)CC2)nn(C)c1=O
    4	3
COCCN1CCCN(C(=O)c2sc(C)cc2OC(F)F)CC1
    1	-1
O=C(Nc1cccc(C(=O)N2CCCC2)c1)NC1CCCCC1
    3	1
CCCCc1nc2ccn(CC(=O)N(C)C)c(=O)c2n1Cc1ccc(-c2ccccc2-c2nn[nH]n2)cc1
    -15	-19
CN(c1ccccc1)S(=O)(=O)c1ccc(NC(=S)NC(=O)/C=C/c2cccs2)cc1
    -4	4
Cc1cccc(C(=O)N2CCN(c3nc(C)cc(Nc4ccccc4)n3)CC2)c1
    7	3
COc1ccc(CCNC(=O)C2CCCN(c3nc(Cc4ccc(Cl)cc4)ns3)C2)cc1OC (stereo not drawn)
    11	13
O=C(Nc1ccc(-c2nc3cc(Cl)ccc3o2)cc1)c1ccco1
    14	26
C=CCn1c(SCc2ccc(C(=O)N3CCCC3)cc2)nnc1-c1ccccc1Cl
    2	4
O=C(OC1CC2CCC1C2)c1cc(Cl)ccn1 (stereo not drawn)
    11	4
COc1cc(-c2nc(CN3CCCC3c3n[nH]c(=O)[nH]3)c(C)o2)ccc1F (stereo not drawn)
    -13	-17
N=C1C(c2nc(-c3ccc(C(F)(F)F)cc3)cs2)C(=O)CN1CC1CCCO1 (stereo not drawn)
    6	4
O=C(NCC1CCCN(Cc2ccccc2-c2ccco2)C1)c1ccc(F)cc1 (stereo not drawn)
    24	9
CCOC(=O)c1nn(-c2ccccc2)c(=O)cc1OCC(=O)NCc1ccc(F)cc1
    11	5
O=C(COc1ccc2c(c1)OCO2)NCCCn1nc(-c2ccc(F)cc2)ccc1=O
    -2	-2
COc1ccc(C(=O)NC2CC2)c(OC2CCN(Cc3nc(C(C)C)cs3)CC2)c1
    3	0
Cc1ccc(NC(=O)Cn2nc(-c3ccco3)c3sc(N4CCOCC4)nc3c2=O)cc1
    -1	-8
CN(C)c1ccc(C=Cc2cccc[n+]2C)cc1
    21	10
Cc1cccc(-c2ccc(NC(=O)C3CCN(C(=O)[C@@H]4C[C@@H]5C=C[C@H]4C5)CC3)cc2)c1
    7	6
Cn1ncc(N=Cc2cccc([N+](=O)[O-])c2)c1C(=O)N1CCOCC1
    -3	-5
Cc1cc(S(=O)(=O)Nc2cccc(CC(=O)O)c2)cnc1Cl
    1	35
CCn1cc(NC(=O)C2c3ccccc3Oc3ccccc32)ccc1=O
    -8	-9
COc1ccc(C)cc1Nc1nnc(SCC2CCCCO2)s1 (stereo not drawn)
    10	6
CSc1ccc(-c2noc(-c3nn(-c4ccc(F)c(F)c4)ccc3=O)n2)cc1
    -3	-5

3 entries from above, sorted by molecular weight, lowest first:
Results follow in this order: NPYLR7 agonist	NPYLR7 agonist max-min
COc1cc(-c2nc(CN3CCCC3c3n[nH]c(=O)[nH]3)c(C)o2)ccc1F (stereo not drawn)
    -13	-17
Cc1cccc(C(=O)N2CCN(c3nc(C)cc(Nc4ccccc4)n3)CC2)c1
    7	3
CSc1ccc(-c2noc(-c3nn(-c4ccc(F)c(F)c4)ccc3=O)n2)cc1
    -3	-5

More entries:
Results follow in this order: NPYLR7 agonist	NPYLR7 agonist max-min
COc1ccc(-n2c(CCC(=O)NCCC3CCCN3C)cc3c2-c2ccccc2CC3)cc1 (stereo not drawn)
    -7	-8
CC1(C(=O)Nc2ccc3c(c2)OCO3)CCN1C(=O)CCc1cccs1 (stereo not drawn)
    12	8
CCOC(=O)N(C)c1c(CC)nc2ccc(C(=O)N3CCN(S(=O)(=O)CC)CC3)cn12
    15	9
COc1ccccc1C(=O)Nc1c2c(nn1-c1cccc(C)c1C)CS(=O)C2 (stereo not drawn)
    -3	-3
O=[N+]([O-])c1ccccc1S(=O)(=O)NCCc1ccccc1
    -7	-7
Cc1cccc2c1C(=O)NC1(CCN(C(=O)Nc3cccc(F)c3)CC1)N2
    -7	2
O=C(CCc1ccco1)N1CC[C@@H](c2ccc3ccccc3c2)[C@H](O)C1
    25	9
O=C(CCCn1cccn1)N1CCOC(c2ccc(Cl)cc2)C1 (stereo not drawn)
    7	3
COCC1=C(C(=O)OC(C)OC(=O)OC(C)C)N2C(=O)[C@@H](NC(=O)C(=NOC)c3csc(N)n3)[C@H]2SC1 (stereo partly drawn)
    -10	-16
CCCCCCCCCCCC(=O)N(CC(=O)NCC(=O)Nc1ccc(OC)cc1)CC1CC1
    3	14
COc1ccc(C2SCCN2C(=O)c2ccc(-c3ccccc3)cc2)c(OC)c1 (stereo not drawn)
    3	18
CNc1nnc(SCc2nnc(C(C)(C)C)o2)s1
    2	0
O=C(CSC1=NCCS1)NC1CCCCC1
    22	14
Cc1ccc(C(=O)Nc2ncc(C)s2)s1
    3	5
Cn1c(=O)[nH]c(=O)c2c1nc1n(-c3ccc(F)cc3)c(-c3ccc(F)cc3)cn21
    6	4
COc1ccc(C)cc1-n1c(C(C)N(Cc2ccco2)C(=O)c2cccc(Br)c2)nc2ccccc2c1=O (stereo not drawn)
    29	27
c1ccc2c(N3CCOCC3)nnc(N3CCOCC3)c2c1
    13	10
Cc1nn(Cc2nnc(C(C)(C)C)o2)c(C)c1Br
    4	3
O=C1CCC2(CCCO2)CCN1Cc1ccc(F)c(F)c1F (stereo not drawn)
    8	3
Cc1noc(C)c1CN(C)Cc1cc2n(n1)CCCNC2
    -1	-9
O=C(c1cnccn1)N1CCC2(CCCN(Cc3cccc(F)c3F)C2)C1 (stereo not drawn)
    9	0
NCCCCC(=O)N1CCOC(c2ccc(Cl)cc2)C1 (stereo not drawn)
    -9	-13
O=C1C=C(N2CCN(C3=CC(=O)CC(c4ccccc4)C3)CC2)CC(c2ccccc2)C1 (stereo not drawn)
    4	1
CCOCCn1c(=O)c2c(nc3n2CCN3c2ccc(OC)cc2OC)n(C)c1=O
    6	2
CCn1cc(NC(=O)NCc2cccc(OC)c2)c2ccccc21
    13	8
COc1ccccc1C(=O)N(Cc1c(-c2ccccc2F)noc1N1CCOCC1)C1CC1
    4	10
C=C1C2(C(=O)Nc3ccc(C)cn3)CCC(C2)C1(C)C (stereo not drawn)
    0	1
CCN1C(=O)C2(SCCN2C(=O)Nc2cccc(F)c2)c2cc(F)ccc21 (stereo not drawn)
    -2	3
Cc1ccccc1C(NC(=O)C1CCN(C(=O)c2ccccc2)CC1)c1ccccn1 (stereo not drawn)
    1	-11
Cc1nc(C2CCCN2CCOc2ccc3c(c2)CCC(=O)N3)no1 (stereo not drawn)
    5	1
Cc1ccc(CN(CCc2ccccc2)C(=O)CNC2CCCCC2)o1
    -14	-12
CC(=O)NCCC1CCN(c2nc3nonc3nc2N(C)Cc2ccccc2)CC1
    14	16
CCOc1ccc(C2CC(c3ccccc3NS(C)(=O)=O)=NN2S(C)(=O)=O)cc1 (stereo not drawn)
    15	19
O=[N+]([O-])c1ccc(-n2nc3ccc4nonc4c3n2)cc1
    81*	80*
CCS(=O)(=O)N1CCN=C1SCc1ccccc1
    8	9
N#CC(=Cc1ccc(C(F)(F)F)cc1)c1ccccc1
    1	6
COc1ccc2oc(=O)c(C(=O)Nc3cc(F)ccc3C)cc2c1
    -5	-10
CCOc1ccc(-c2cc3c(=O)n(CC(=O)Nc4ccccc4CC)ccn3n2)cc1
    7	5
COc1cc(CN2CCC(n3cc(CC(C)C)nn3)CC2)ccc1F
    6	1
C=Cc1cc(OC)c(OCc2ccc(Br)cc2F)c(OC)c1
    7	3
CC(C)=CCCC(C)CN1CCC(n2cc(C(C)(C)O)nn2)CC1 (stereo not drawn)
    6	5
CN(C(=O)C(C#N)C(=O)CCc1ccsc1)C1CCCCC1 (stereo not drawn)
    1	0
Cc1c(NCC(=O)N(c2ccccc2)C2CCS(=O)(=O)C2)cccc1[N+](=O)[O-] (stereo not drawn)
    -2	2
O=C(CNC(=O)c1ccccn1)N=Nc1c(O)n(CCc2ccccc2)c2ccccc12
    3	-8
COc1ccc(C(=O)N(Cc2cc(NC(=O)C3CCC3)ccc2N(C)C)C2CCCCC2)cc1
    19	24
CC(c1cccs1)N(C)CCS(=O)(=O)c1ccc(Br)cc1 (stereo not drawn)
    -1	-2
CC1CC1c1ccc(/C=C/C(=O)N2CCN(Cc3ccccc3)CC2)o1 (stereo not drawn)
    8	6
Cc1ccc(C)c2c(N=NC(=O)c3cc4ccccc4cc3O)c(O)[nH]c12
    -3	-15
CCc1nnc(NC(=O)c2cc(OC)ccc2Br)s1
    3	-1
CN(C)C1CCN(C(=O)C23CC4CC(CC(Cl)(C4)C2)C3)CC1
    0	10
Cc1cc(C2CCC2)nc(N2CCc3nnc(C)n3CC2)n1
    2	0
CCc1ccc(CSc2nc3cc(S(=O)(=O)N4CCCC(C)C4)ccc3n2C2CCCC2)cc1 (stereo not drawn)
    2	2
Cc1c(N2CCOCC2)c(C)n(Cc2cccc(C(F)(F)F)c2)c1C(=O)Nc1cccc(F)c1
    0	9
COCCCNC(=O)c1cc(-c2ccc(F)cc2)n(-c2cccc(C)c2)c1C
    21	30
Cc1[nH]cnc1-c1nccn1Cc1cccnc1
    0	-4

Two records picked at random from those above, as already listed:
Results follow in this order: NPYLR7 agonist	NPYLR7 agonist max-min
CCc1ccc(CSc2nc3cc(S(=O)(=O)N4CCCC(C)C4)ccc3n2C2CCCC2)cc1 (stereo not drawn)
    2	2
CC(C)=CCCC(C)CN1CCC(n2cc(C(C)(C)O)nn2)CC1 (stereo not drawn)
    6	5

Not all compounds are listed; the hit share may differ from the screen's.
